High-throughput results deposited in PubChem BioAssay by Emory University Molecular Libraries Screening Center.
Measles inh: inhibitors of measles virus growth in infected cells | infected Vero cells, GFP fluorescence, 64 h; active compounds read low | z-score (test concentration not listed) | actives 0.1% (n = 33,000) | AID 745;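 active means z-score under -3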;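 further: score is relative to mean and SD of the compound wells of a plate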
Numbers without * were called inactive.

Measles inh | Structure
0 | COc1ccccc1-c1nc(-c2ccc(NC(=O)c3ccc(Br)o3)cc2)no1
0.09 | Cc1cc(Cl)ccc1OCC(=O)Nc1cccc2nsnc12
-0.18 | CCOC(=O)c1cccc(C(=O)Nc2nccs2)n1
-0.75 | c1ccc(-c2nc3ccccc3c3nc4ccccc4n23)cc1
-0.5 | Cc1ccccc1-n1nc2c(c1NC(=O)C1CCCCC1)CS(=O)C2 (stereo unspecified)
-1.1 | CCOc1ccc(C2C(C(=O)OC3CCCCC3)=C(C)NC3=C2C(=O)CCC3)cc1OC (stereo unspecified)
0.9 | O=C(CSc1nccn1-c1ccccc1)Nc1ccccc1C(F)(F)F
-0.74 | COc1ccc(CCNC(=O)c2cc3nc(-c4cccs4)cc(C(F)(F)F)n3n2)cc1OC
-0.6 | Cc1ccc2oc(-c3ccc(C)c(NC(=O)c4ccc([N+](=O)[O-])cc4)c3)nc2c1
-0.73 | CCc1ccc(-n2c(C)nc3cc(C(=O)NCc4cccnc4)ccc32)cc1
1.4 | COc1ccccc1CNC(=O)c1ccc2c(c1)N(Cc1ccc(F)cc1)C(=O)CS2
1 | COc1cc2nc(SCC(=O)Nc3ccc(F)cc3)n(Cc3ccco3)c(=O)c2cc1OC
2.3 | O=C1OC(Nc2ccccn2)c2ccccc21 (stereo unspecified)
0.07 | O=C(Nc1cc2cccc([N+](=O)[O-])c2oc1=O)c1cccc2ccccc12
0.5 | Cc1ccc2nsnc2c1S(=O)(=O)Nc1ccc(Cl)cc1
-1.4 | CC1=C(C(=O)OC2CCCCCC2)C(c2ccccc2I)NC(=O)N1C (stereo unspecified)
0.09 | COc1ccc(N2C(=O)c3ccc(Oc4cccc(N)c4)cc3C2=O)cc1
-0.69 | O=C(c1cc2c(=O)oc3ccccc3c2s1)N1CCN(c2ccccc2F)CC1
-0.56 | COC(=O)c1c(NC(=O)c2cc(-c3ccc(Br)cc3)nc3ccccc23)sc(C)c1C
-1.2 | COc1ccc(C)cc1NC(=O)C1CCN(S(=O)(=O)c2cccc3nonc23)CC1
0.4 | Cc1cccn2c(=O)c(C=Nc3ccccc3)c(NCc3ccccc3)nc12
0.09 | COc1cc2c(C(=O)N3CCCC3)cn(CC(C)C)c(=O)c2cc1OC
1.5 | Brc1ccc2ncnc(Nc3ccc(N4CCCC4)cc3)c2c1
-0.48 | CCCCNC(=O)c1ccc(N2CC3CC(C2)c2cccc(=O)n2C3)c(NS(=O)(=O)c2ccc(Cl)cc2)c1 (stereo unspecified)
-0.44 | O=[N+]([O-])c1cc(Br)cc(C=Nc2ccc3nc(-c4ccc(Cl)cc4)oc3c2)c1O
-0.29 | Cc1ccc(NS(=O)(=O)c2cc(C(=O)Nc3ccc(C(=O)O)cc3)ccc2C)cc1
-0.94 | O=C(CCS(=O)(=O)c1ccc(Br)cc1)Nc1ccccn1
0.07 | COc1ccc(C(=O)Nc2ccccc2C)cc1
1.8 | Cc1nc2c(C(=O)NC3CCCC(C)C3C)cnn2c(C)c1Cc1ccc(F)cc1 (stereo unspecified)
-0.19 | CC(=O)Nc1ccc(S(=O)(=O)N2c3ccccc3C(C)=CC2(C)C)cc1
1.2 | CC1CC(C)CN(S(=O)(=O)c2ccc3[nH]cc(C(=O)O)c(=O)c3c2)C1 (stereo unspecified)
1.9 | CC(C)(O)C=C1Oc2ccccc2C1N1CCCCC1 (stereo unspecified)
-1.4 | O=c1[nH]c2ccccc2c(=O)n1CCn1c(=O)[nH]c2ccccc2c1=O
-0.87 | CC(C)(C)c1ccc(OCC(=O)NCCc2ccccc2)cc1
-0.25 | COc1ccccc1N=c1oc2cc(O)ccc2cc1C(N)=O
-0.3 | Cc1ccc(C2/C(=C(\O)c3ccccc3)C(=O)C(=O)N2c2cccc(C(F)(F)F)c2)cc1 (stereo unspecified)
0.91 | Cc1c(C(=O)OCCOc2ccccc2)sc(=S)n1C
-0.69 | O=C(Nc1nccs1)c1ccc(NC(=O)C2CCCO2)cc1 (stereo unspecified)
-0.59 | O=C(c1cc(O)ccc1O)c1coc2ccc(O)cc12
0.33 | O=c1c(N=Cc2cccc([N+](=O)[O-])c2)cc2[nH]c3ccccc3c2n1-c1ccccc1
0.46 | CC(C)C(NS(=O)(=O)c1cccs1)C(=O)N(C)Cc1ccccc1 (stereo unspecified)
0.64 | Cc1ccccc1-n1c(C)nc2ccccc21
-0.96 | O=C(NCCOCc1ccccc1)c1ccccc1Cl
-1.7 | Oc1ccc(-c2ccc(N=Cc3ccc(Cl)cc3)cc2)cc1
-0.02 | Cc1ccc(S(=O)(=O)N=C(Nc2cccc([N+](=O)[O-])c2)c2ccccc2)cc1

Reformatted field by field: 4 of the compounds above
> CC(C)(O)C=C1Oc2ccccc2C1N1CCCCC1 (stereo unspecified)
  Measles inh: 1.9

> COc1ccccc1N=c1oc2cc(O)ccc2cc1C(N)=O
  Measles inh: -0.25

> Oc1ccc(-c2ccc(N=Cc3ccc(Cl)cc3)cc2)cc1
  Measles inh: -1.7

> CC(C)(C)c1ccc(OCC(=O)NCCc2ccccc2)cc1
  Measles inh: -0.87

Sorted by value in Measles inh (descending): some entries from above.
mol | Measles inh
CC(C)(O)C=C1Oc2ccccc2C1N1CCCCC1 (stereo unspecified) | 1.9
O=C(c1cc(O)ccc1O)c1coc2ccc(O)cc12 | -0.59
Oc1ccc(-c2ccc(N=Cc3ccc(Cl)cc3)cc2)cc1 | -1.7

(further entries)
Measles inh | Structure
0.81 | C=CCn1c2ccccc2c2nnc(SCc3[nH]c(C(=O)OCC)c(C)c3C(C)=O)nc21
-0.23 | CCOc1ccc(NC(=O)CSC2=Nc3ccccc3C3=NC(C(C)C)C(=O)N23)cc1 (stereo unspecified)
0.12 | Cc1ccc(C=Nc2ccc3c(c2)Cc2cc([N+](=O)[O-])ccc2-3)cc1
-0.09 | COC(=O)CC1SC(=O)NC1=Nc1ccc(O)cc1 (stereo unspecified)
0.24 | CCOC(=O)c1c(C)n(C)c2c1cc(OC(=O)COc1ccccc1)c1ccccc12
-0.69 | COc1ccc(C(=S)N2CCCCC2)cc1OC(=O)c1ccccc1
-0.84 | CSc1nnc(-c2cccc([N+](=O)[O-])c2)n1-c1ccccc1
-0.53 | O=C(NC1CCCC1)C1CCCN(S(=O)(=O)c2cccs2)C1 (stereo unspecified)
0.55 | CC(C)CC(C1=C(O)CCCC1=O)C1=C(O)CCCC1=O
-0.06 | COc1ccc(Cl)cc1C(=O)Nc1cc(-c2nc3cc(C)ccc3o2)ccc1Cl
-0.23 | CCc1ccc(NC(=O)CSC2=Nc3ccccc3C3=NC(CC(C)C)C(=O)N23)cc1 (stereo unspecified)
0.36 | CCCn1c(=O)c(C(=O)NCc2ccncc2)c(O)c2ccccc21
0.81 | C=CCn1c(-c2ccccc2OC)n[nH]c1=S
-2.1 | COc1ccc2cc3cc(C(=O)NCCN4CCc5ccccc5C4)oc3nc2c1
-0.42 | COc1ccc(Br)cc1C(=O)Nc1cc2c(ccc3ccccc32)oc1=O
1.1 | CC(=O)c1nn(-c2ccc(C)cc2)cc1C(=O)c1nc2ccccc2s1
0.62 | COc1ccc(N2CCN(CCCn3c(=S)[nH]c4cc5c(cc4c3=O)OCO5)CC2)cc1
-0.52 | O=S(=O)(NCc1ccccn1)c1ccc(F)cc1
-0.3 | C#CCSc1nc2ccccc2n1C(=O)c1ccc(S(=O)(=O)N2CCOCC2)cc1
-0.72 | COc1ccc(C2C(C(=O)NCc3ccc(F)cc3)CCC(=O)N2c2ccc(OC)cc2)cc1 (stereo unspecified)
0.1 | C=CCN1C(=O)CSC1=Nc1ccc(O)cc1
0.35 | CC1CCN(S(=O)(=O)c2ccc(F)c(C(=O)Nc3ccc(C(F)(F)F)cc3)c2)CC1
1.1 | O=C1c2ccc([N+](=O)[O-])cc2C(=O)N1C1C(=O)N(c2ccc(Cl)cc2[N+](=O)[O-])C1c1ccc2c(c1)OCO2 (stereo unspecified)
-1.1 | COc1ccc(C2CC(C(F)(F)F)n3nc(C(=O)Nc4ccc(C)c(Cl)c4)cc3N2)cc1 (stereo unspecified)
-0.35 | CC(C)Oc1cccc(C(=O)Nc2ccc(Cl)c(-c3nc4ncccc4o3)c2)c1
1 | Cc1cc(C)cc(NC(=O)CSc2nccn2-c2cccc(C)c2C)c1
-1 | NC(=O)c1c(NC(=O)c2ccc(S(=O)(=O)N3CCCC3)cc2)sc2c1CCCC2
0.07 | COc1cc(C2C(C(=O)N3CCOCC3)=C(C)NC3=C2C(=O)CC(C)(C)C3)cc(Br)c1O (stereo unspecified)
0.75 | CC1=CCC2C(=O)N(c3ccc(C(=O)OCC(=O)c4ccc(Cl)cc4)cc3)C(=O)C2C1 (stereo unspecified)
-0.92 | CCC1CCCCN1CCCNC(=O)C1c2ccccc2C(=O)N(C)C1c1cccs1 (stereo unspecified)
0.1 | CC(C)C(NC(=O)C1CCCCC1)C(=O)N1CCN(c2ccccn2)CC1 (stereo unspecified)
-1.3 | CCOc1ccc(S(=O)(=O)NCc2ccco2)c2ccccc12
-2 | COc1ccc(N2CCN(C(=O)c3cnn4c(C)c(Cc5ccc(C)cc5)c(C)nc34)CC2)cc1
-0.99 | Fc1cc(F)nc(NCc2ccccc2)n1
-0.29 | CC12CC3(C)CC(C)(C1)CC(N)(C2)C3
-0.44 | CCCCOCC(O)Cn1c2ccccc2c2ccccc21 (stereo unspecified)
-0.41 | COc1cc(C(=O)NCc2ccc3c(c2)OCO3)cc(OC)c1OC
1.1 | NC(=O)C(=O)Nc1ccc2c(c1)OCCO2
-0.32 | CCOC(=O)C1=C(c2ccccc2)NC(=S)NC1c1ccccc1Br (stereo unspecified)
-0.18 | CCOc1ccc(-n2c(=O)c3sccc3n(CC(=O)c3cccc([N+](=O)[O-])c3)c2=O)cc1
-0.21 | CC(C)OC(=O)CNc1n[nH]c(=O)[nH]c1=O
-1.1 | CCCCCn1c(=S)[nH]c2cc(C(=O)Nc3ccccc3OC)ccc2c1=O
-0.8 | O=C(O)CCC(=O)Nc1ccc(-c2cc(-c3ccccc3)c3cc(Br)ccc3n2)cc1
1 | CCOC(=O)C1CCN(Cc2nc(-c3ccc(C)cc3)no2)CC1
-0.41 | N#Cc1cc2c(nc1SCC(=O)c1ccccc1)CCC2

Brought forward from above: 4 entries, followed by the next part.
Measles inh | Structure
-1.1 | CCCCCn1c(=S)[nH]c2cc(C(=O)Nc3ccccc3OC)ccc2c1=O
-0.8 | O=C(O)CCC(=O)Nc1ccc(-c2cc(-c3ccccc3)c3cc(Br)ccc3n2)cc1
1 | CCOC(=O)C1CCN(Cc2nc(-c3ccc(C)cc3)no2)CC1
-0.41 | N#Cc1cc2c(nc1SCC(=O)c1ccccc1)CCC2
1.1 | Cc1cc(C)c2c(C)nn(C3CCCCC3)c2n1
-1.1 | N#Cc1cccn1Cc1ccccc1Cl
-0.61 | Cc1[nH]c2ccccc2c1C(c1cccs1)N1CCCCC1 (stereo unspecified)
0.46 | CSc1cccc(N2C(=O)NC3CC2(C)Oc2ccc(Cl)cc23)c1 (stereo unspecified)
0.73 | O=C(CSc1ncnc2sc3c(c12)CCCC3)c1ccc2c(c1)OCO2
0.39 | CCOC(=O)Cc1csc(NC(=O)CN2C(=O)c3ccccc3C2=O)n1
0.03 | Cc1sc2ncn(CC(=O)O)c(=O)c2c1S(=O)(=O)N1CCOCC1
-1.8 | CC(C)(C)c1ccccc1OCC(=O)Nc1cccc(C(F)(F)F)c1
-0.85 | CCOC(=O)c1c(NC(=O)c2cc3nc(-c4cccs4)cc(C(F)(F)F)n3n2)sc(C)c1C
-0.13 | COc1ccc(CCn2c(=O)[nH]c3cc(C(=O)N4CCN(c5ccccn5)CC4)ccc3c2=O)cc1OC
-0.53 | CCC1CCCCN1CCNS(=O)(=O)c1cc(Br)cc2c1N(C(=O)C1CC1)CC2 (stereo unspecified)
0.36 | Cc1ccccc1NC(=O)Cn1c(=O)n(Cc2ccc3c(c2)OCO3)c(=O)c2ccccc21
1.2 | CCOc1ccc(-n2c(=O)c3sccc3n(CC(=O)Nc3cccc(C)c3)c2=O)cc1
-0.42 | O=C(Nc1cc(C(F)(F)F)ccc1Cl)c1ccc(F)cc1
0.03 | CC(C)(C#N)NC(=O)C1Cc2ccccc2CN1S(=O)(=O)c1ccc(F)cc1 (stereo unspecified)
1.8 | O=C(NCc1cccs1)c1ccc(CS(=O)(=O)c2ccccc2)o1
-0.2 | Cc1cc(C)nc(NS(=O)(=O)c2ccc(NC(=O)c3ccccc3C)cc2)n1
0.43 | Cn1c(=O)n(C)c2cc(CN)ccc21
0.08 | CCC(C)NC(=O)c1cc2nc(-c3cccs3)cc(C(F)(F)F)n2n1 (stereo unspecified)
-1.4 | COc1ccc(C2=NC(C(C)C)NC(c3cccc(OC)c3O)C2)cc1 (stereo unspecified)
0.98 | COc1ccc(CCn2cc3c(c2-c2ccc(C)cc2)c(=O)n(C)c(=O)n3C)cc1OC
-1 | CCOC(=O)C1=C(C)NC2=C(C(=O)CCC2)C1c1cc(OC)c(OC)cc1[N+](=O)[O-] (stereo unspecified)
-0.36 | COc1ccccc1C1N(Cc2ccc(C)cc2)CCCN1Cc1ccc(F)cc1 (stereo unspecified)
-1.5 | Cc1ccc(N(C)C(=O)Cc2c(C(=O)O)[nH]c3ccc(Cl)cc23)cc1C
0.24 | C=CCNC(=O)c1cccc(-n2c(=S)[nH]c3cc(Cl)ccc3c2=O)c1
0.07 | C=CCNS(=O)(=O)C1CCS(=O)(=O)C1 (stereo unspecified)
-0.47 | COC(=O)c1cccc(C(=O)Nc2cccc3ccccc23)n1
-1.2 | Cc1cc(C)cc(-n2c(=O)c3sccc3n(Cc3ccc(F)cc3)c2=O)c1
-0.54 | O=[N+]([O-])c1ccc(Oc2ccc(S(=O)(=O)NCC34CC5CC(CC(C5)C3)C4)cc2)cc1
-0.51 | Cc1ccc(SCc2cn3c(C)cc(C)nc3n2)cc1
1.6 | CCCOc1ccc(C(=O)Nc2cccc(-c3nc4ncccc4o3)c2C)cc1
-1.4 | COc1ccc(CCn2c(=S)[nH]c3ccccc3c2=O)cc1OC

These rows are one share of the data; rates above refer to the full screens.
